# Bioassay records from PubChem BioAssay.
# RanGTP-Imp inh: inhibitors of RanGTP-importin-beta interaction, primary screen, biochemical, FRET, CFP-Ran, YFP-importin-beta, homogeneous | cell-free CFP-Ran/YFP-importin-beta FRET ratio | hit rate 1.1% among 300,000 | inhibition, % (no concentration beside the values);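 active = most replicates above 15%; inconclusive = exactly half above 15%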;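 also: 0% = DMSO wells and 100% = Ran loaded with GDP instead of GTP; wells of about 40 µL received 100 nL stock; the first replicate is given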
# UCH37 DUB inh: inhibitors of human deubiquitinating enzyme UCH37 | Q9Y5K5 | purified proteasome/UCH37, Ub-AMC cleavage fluorescence | inhibition, % (test concentration not listed) | hit rate 0.33% among 330,000 | AID 588478;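 active = mean of two replicates above 20%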;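 also: 0% = compound-free wells with enzyme and 100% = wells lacking proteasome; stock transfer was 100 nL into about 20 µL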
#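 System: Proteasome-associated human UCH37 deubiquitinase; Input: 0.15 nM proteasome in added enzyme buffer; Also added: Ub-AMC substrate from 1 µM stock; Incubation: 30 min compound-proteasome preincubation then 25 min substrate reaction, room temperature; Detection: fluorescence, ex 355 nm, em 460 nm; Read-out: % inhibition of Ub-AMC cleavage fluorescence; Benchmarks: no-proteasome and no-compound wells.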
# Vif TR-FRET: HIV-1 Vif–A3G interaction blockers – biochemical, TR-FRET, GST-Vif 1-94, biotin-A3G peptide, dose response retest, primary screen (AID 1117319); TR-FRET GST-Vif / biotin-A3G peptide binding; higher % means a stronger effect; test concentration not given here; strong numbers were not always called active; one-dose inhibition, %; IC50 in µM for titrated hits; hit rate 0.57% among 260,000;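 active = above the screen mean plus three standard deviations and confirmed in dose response; inconclusive = results disagree or hit not tested in dose response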;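 also: Vif residues 1-94 fused to GST binding biotinylated APOBEC3G peptide 110-148; 0% = full assay without inhibitor and 100% = GST in place of GST-Vif; retest series ran down from 100 µM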
# HNF4A DNA FP: change in binding of human HNF4 alpha to DNA. HNF4a-FITC DNA binding, fluorescence polarization, 1 h. activity change, % at 10 µM. hit rate 0.3% among 360,000. AID 1224865. P41235; in the data active = activity change above about 30%, passing the limit was not always enough;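 also: controls were the assay level and a saturating level of protein; the project sought stronger binding though the title names inhibitors; some compounds called inactive have numbers as strong as hits; positive values seem to mean higher polarization but the record does not say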
# FGF22 binding: binders of recombinant human FGF22 by thermal shift; Q9HCT0; AID 651658; calls only at 9.99 µM; SYPRO orange fluorescence; percent of sucrose octasulfate shift, DMSO zero; hit rate 1.5% among 340,000;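 active = melting point raised past a set limit in the mean and every replicate; inconclusive = no clear call; three in four hits are not shown here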
# Target sequence (Q9HCT0 whole entry, looked up): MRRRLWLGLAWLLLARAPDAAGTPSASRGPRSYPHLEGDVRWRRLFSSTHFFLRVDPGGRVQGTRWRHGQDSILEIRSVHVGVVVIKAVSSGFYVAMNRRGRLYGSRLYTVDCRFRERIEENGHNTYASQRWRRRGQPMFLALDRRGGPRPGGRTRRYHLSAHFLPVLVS
# AF4-AF9 inh: inhibitors of human MLL-AF4/AF9 interaction; AlphaScreen, biotin-AF4 peptide binding to FLAG-AF9; inhibition, % at 10 µM; hit rate 0.47% among 350,000; P42568;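 active = every replicate reaching a set inhibition limit, whatever the replicate mean, cut at about 25% in these data; inconclusive = mean inhibition reaches that limit but some replicates miss it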;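 also: 0% = plate neutral control median and 100% = total signal loss; the record names both 10 and 1 µM as test concentration; the first replicate is given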
# Target sequence (P42568 whole entry, looked up): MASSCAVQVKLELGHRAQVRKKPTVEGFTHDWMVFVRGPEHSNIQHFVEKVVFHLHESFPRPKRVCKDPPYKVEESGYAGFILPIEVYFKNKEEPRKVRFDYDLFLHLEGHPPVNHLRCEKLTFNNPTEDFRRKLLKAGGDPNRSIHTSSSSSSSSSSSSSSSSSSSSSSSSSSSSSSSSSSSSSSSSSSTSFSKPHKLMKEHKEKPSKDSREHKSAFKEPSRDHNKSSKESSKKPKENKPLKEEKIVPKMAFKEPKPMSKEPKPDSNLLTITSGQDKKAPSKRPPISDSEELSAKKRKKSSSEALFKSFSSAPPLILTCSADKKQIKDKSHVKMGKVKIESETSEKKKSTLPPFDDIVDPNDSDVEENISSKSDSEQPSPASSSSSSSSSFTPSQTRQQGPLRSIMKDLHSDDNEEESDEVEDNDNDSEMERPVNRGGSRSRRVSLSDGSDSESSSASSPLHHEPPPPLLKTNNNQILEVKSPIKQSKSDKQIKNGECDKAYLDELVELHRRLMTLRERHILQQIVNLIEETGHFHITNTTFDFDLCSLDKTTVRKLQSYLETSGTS
# Ecoli growth: blocks Escherichia coli growth; OD600, 23 h; hits give low values; OD600 absorbance (concentration not given with the values); hit rate 0.21% among 330,000;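 active = OD600 absorbance below the run mean of sample wells minus 3.6 SD, in any replicate, cut at about 0.56 in these data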;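 also: stock transfer was 300 nL into about 60 µL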
# Starred values were filed as active, the others as inactive; i = inactive; ? = inconclusive; / = not tested or not shown; & = joins results of further samples. The list is partial; rates above refer to the full screens.
Structure	RanGTP-Imp inh	UCH37 DUB inh	Vif TR-FRET	HNF4A DNA FP	FGF22 binding	AF4-AF9 inh	Ecoli growth
COCCNC(=O)c1cccc(OC2CCN(Cc3cccc(C(C)=O)c3)CC2)c1	0.9	3.0	/	2.1	i	-4.1	0.72
Cc1ccc(N(C)C(=O)CN(C)S(=O)(=O)c2ccc3c(c2)n(C)c(=O)c(=O)n3C)cc1	?	-0.9	/	0.3	i	-2.5	0.69
COC(=O)C1C/C(=N\NS(=O)(=O)c2ccc(C)cc2)c2ccsc2C1 (stereo not drawn)	0.9	/	-1%	7.8	/	/	/
C/C(=N\Nc1cc(C)nc(NCc2ccccc2)n1)c1cccc([N+](=O)[O-])c1	-0.8	/	-12%	6.8	i	-5.7	/
CCOc1c(OC)cccc1C(=O)NCC1(c2ccccc2)CCCC1	-1.8	4.1	1%	-1.8	i	-23	0.68
Cc1ccc(Cl)cc1N1CCN(C(=O)COc2ccc3c(c2)CCC3)CC1	0.5	3.9	45µM*	2.0	i	-0.2	0.7
COc1ccc(C(=O)O)cc1NC(=S)NC(=O)CSc1ccc(Cl)cc1	1.5	/	8%	2.7	i	-11	/
Cc1cc(NC(=O)CCC(=O)N(c2ccc(F)cc2)C2(C(=O)NC3CCCCC3)CCCC2)no1	2.5	2.4	6%	0.1	/	/	0.69
O=C(CN(C(=O)CNS(=O)(=O)c1ccccc1)c1ccc2c(c1)OCCO2)NCc1ccco1	-0.4	1.3	2%&-11%	-2.2	/	/	0.73
CCCOc1ccc(N2C(=O)CC(SCCc3nc4ccccc4[nH]3)C2=O)cc1 (stereo not drawn)	-1.2	3.3	15%	-2.8	i	0.2	0.7
Cc1ccc(C2=N/C(=C\c3ccc(F)cc3)C(=O)N2)cc1	/	-29	-3%	0.6	i	-4.3	0.73
CC(=O)NCCc1ccc(C(=O)COC(=O)c2cccn2C)cc1	/	3.2	-1%	4.8	i	0.3	0.71
COc1ccc(/C=N/N(C)C2=NS(=O)(=O)c3ccccc32)cc1	3.2	/	1%	4.7	i	-7.3	/
Fc1ccc2cc(-c3ccccc3F)ncc2c1	/	1.7	/	0.4	i	0.0	0.69
COc1ccc(NC(=O)Cn2c(=O)n(Cc3ccco3)c(=O)c3ccccc32)cc1	7.4	-0.3	-2%	-44	/	/	0.76
Cc1cccc(N2CCN(C(=O)CSCc3c(C)noc3C)CC2)c1C	-0.8	1.8	1%	0.4	/	/	0.62
Cc1ccc(S(=O)(=O)N2CCN(C(=O)COC(=O)c3cc(C)oc3C)CC2)cc1	1.5	1.3	-1%	-0.3	/	/	0.74
Cc1cc(C)c[n+](C(C)C(=O)c2ccc(-c3ccccc3)cc2)c1 (stereo not drawn)	-1.5	-5.7	-11%	4.6	/	/	0.68
Cc1cccn2c(=O)c(C=Nc3ccccc3)c(NCCO)nc12	-1.0	-42	-3%	4.0	i	7.2	0.69
Cc1cc(=O)oc2cc(OCC3CC(c4ccccc4)=NO3)ccc12 (stereo not drawn)	1.3	-27	0%	-1.6	i	3.9	0.6
O=C1CC[C@@H](OCc2ccccc2)CCN1CC[C@H](Sc1ccccc1)c1ccccc1	2.2	3.4	/	-2.8	i	-2.4	/
Nc1nnc(-c2cccc([N+](=O)[O-])c2)s1	-0.4	2.0	0%	-0.3	i	0.3	0.66
CN(c1ccc(Cl)cc1)c1cc2c(c3c1ccn3C)C1CCC2C1 (stereo not drawn)	/	/	/	0.0	i	10	/
CCCCCc1c(O)nc(SCCN(CC)CC)[nH]c1=O	-2.4	2.3	8%	1.7	i	-1.3	0.68
CSc1nc2c(cc1C#N)CCCCC2	?	3.4	3%	4.7	i	-0.9	0.72
COc1ccc(-c2nc3c(c4nnc(SC(C)C(=O)Nc5ccccc5)n24)COC(C)(C)C3)cc1 (stereo not drawn)	1.1	0.7	/	0.8	i	2.2	0.73
COc1cccc2sc(Nc3nnc(-c4ccccc4Cl)o3)nc12	-11	-17	-3%	1.0	i	8.1	0.73
O=C(NCCc1cccs1)C1CC1	-0.5	4.2	-6%	-2.8	i	-1.8	0.7
Cc1ccc(S(=O)(=O)c2nc(-c3cccs3)oc2NCCCN(C)C)cc1	?	-7.0	4%	1.8	/	/	0.64
O=C(c1ccco1)N1C(=O)c2cccc3c(S(=O)(=O)N4CCCC4)ccc1c23	-2.5	-48	3%	-4.7	/	/	0.76
Cc1ccc(-c2nc(=S)c3c(n2Cc2ccco2)CC(C)(C)OC3)cc1	-2.0	5.3	?	0.4	/	/	0.67
CCC(C)(C)NC(=O)C(c1ccc(C)cc1)N(CC1CCCO1)C(=O)CNC(=O)c1cccs1 (stereo not drawn)	-2.3	4.5	-3%	1.0	/	/	0.66
O=C(NCCOc1ccccc1)c1ccccc1NC(=O)C1CCCO1 (stereo not drawn)	-1.4	-0.5	2%	4.2	i	-2.4	0.73
COc1c(C)c2c(c(O)c1C/C=C(\C)CCC(=O)O)C(=O)OC2	4.7	-8.1	/	-3.4	i	-3.5	0.71
COc1ccc(/C=C2\C(=N)N3N=C(CC(=O)N4CCOCC4)SC3=NC2=O)cc1	?	/	5%	1.9	i	-3.9	/
CC(=O)NC(C)(c1ccccc1)c1nc(-c2cccc(C#N)c2)cs1 (stereo not drawn)	/	/	/	1.6	i	-0.6	/
O=C(COC(=O)c1ccc(Cl)c([N+](=O)[O-])c1)Nc1ccccc1OC(F)F	-1.8	4.6	6%	-2.8	/	/	0.69
O=C(CCCc1ccccc1)NCCS(=O)(=O)N1CCN(c2ccc(F)cc2)CC1	6.5	0.1	3%	-3.5	i	-13	0.7
Cc1c(C(=O)NC(C)CN2CCCCC2)oc2ccccc12 (stereo not drawn)	1.7	-1.6	8%	0.3	/	/	0.66
O=C(CCc1ccccc1)NC1(Cc2ccccc2)CCN(CCCc2ccccc2)C1=O (stereo not drawn)	/	0.9	/	-0.8	i	-1.8	0.7
Cc1cc(C)cc(NC(=S)NCc2ccc(F)cc2)c1	?	0.2	/	-3.0	i	-1.1	0.69
Cc1ccc2c(c1)N(CC(=O)N1CCCc3ccccc31)C(=O)C(C)O2 (stereo not drawn)	2.2	2.0	28%	-3.2	/	/	0.67
COc1ccc(NC(=O)CN2c3cccc4cccc(c34)S2(=O)=O)cc1OC	/	/	-4%	6.3	i	-1.3	/
CCOC(=O)c1cccc(NC(=O)c2ccc(-n3cnnn3)cc2)c1	/	1.7	-5%	2.7	i	0.6	0.65
COc1ccc(OC(C)C(=O)N(C)Cc2nc(-c3ccc(C)cc3)no2)cc1 (stereo not drawn)	0.0	2.5	/	-1.1	i	1.6	0.7
Cc1onc(-c2c(F)cccc2Cl)c1C(=O)ONC(=O)c1ccco1	-4.0	-2.0	13%	0.9	i	0.6	0.68
Cc1nn2c(=O)c(NC(=O)c3ccc(F)cc3)cnc2s1	-1.0	4.4	7%	-3.7	/	/	0.73
O=S(=O)(NC1CC1)c1ccc(Br)cc1N1CCC[C@H]1CO	/	/	/	4.7	i	-1.3	/
CCOC(=O)C1(Cc2cccc(OC)c2)CCN(Cc2cc(OC)ccc2OC)CC1	-3.0	-3.2	0%	0.8	i	12	0.67
COc1ccc(C(=S)N2CCOCC2)cc1OC(=O)c1ccc(C)cc1	2.9	2.8	/	1.4	i	15	0.68
COc1ccc(CN(C)C(=O)c2cc(S(=O)(=O)N3CCOCC3)ccc2N2CCCC2)cc1	6.9	1.0	11%	-1.9	i	-12	0.64
O=S1(=O)CCO[C@H]2Cc3ccccc3[C@H]2N1Cc1ccc(F)cc1	0.9	3.9	/	-5.2	i	-2.7	/
CCCOC(=O)c1ccc(NS(=O)(=O)c2cccs2)cc1	-2.0	2.7	?	-1.1	/	/	0.69
Cc1ccc(OCc2cc(C(=O)NCc3cnn(-c4cccc(F)c4)c3)no2)cn1	?	0.4	/	2.3	i	-6.9	0.68
c1ccc2oc(-c3ccc4nc[nH]c4c3)nc2c1	1.2	-17	3%	1.7	/	/	0.72
CC1(C)Oc2ccc3ccc(=O)oc3c2/C(=C/Nc2ccccn2)C1=O	0.4	-1.2	1%	2.8	/	/	0.7
CC1(C(=O)NS(=O)(=O)c2cccc(F)c2)CCN1C(=O)Cc1ccc(Cl)cc1Cl (stereo not drawn)	/	/	/	2.3	i	-3.8	/
CC(CN1CCN(Cc2ccccc2)CC1)OC(=O)c1ccco1 (stereo not drawn)	5.6	-1.5	/	-4.8	i	-1.1	0.68
O=C(NCc1ccccn1)c1cc(-c2ccccc2Cl)nc2ccccc12	5.4	1.2	/	0.2	i	0.1	0.65
CCN(Cc1ccccc1)C(=O)C1CCN(c2ncnc3c2nc2n3CCCCC2)CC1	-1.7	2.5	/	-0.6	i	-4.3	0.7

# Further records
Structure	RanGTP-Imp inh	UCH37 DUB inh	Vif TR-FRET	HNF4A DNA FP	FGF22 binding	AF4-AF9 inh	Ecoli growth
COc1ccc2[nH]c(C)c(CCNC(=S)Nc3cccc(C)c3)c2c1	-8.4	3.1	/	3.7	i	16	0.66
CN(C)C=Nc1nonc1-c1ccccc1	-0.6	0.5	-2%	-0.6	i	0.8	0.64
COc1ccc(CCNC(=O)c2cc(=O)[nH]c3ccccc23)cc1	2.9	-15	/	0.9	i	-0.6	0.72
COc1ccc(CN(C)C[C@@H]2OCCCC[C@H](C)Oc3ccc(NC(=O)Nc4ccc(F)cc4)cc3C(=O)N([C@H](C)CO)C[C@H]2C)cc1	/	/	1%	4.6	i	17&16	/
COC(=O)c1sccc1NC(=O)COc1ccc(Cl)cc1Cl	2.9	2.5	11%	3.9	/	/	0.7
CC1(C(=O)NCc2cccnc2)CCN1C(=O)Cc1cccs1 (stereo not drawn)	/	/	/	-3.8	i	-0.4	/
Cc1ccc(C2CC(=O)NC(SCc3ccccc3)=C2C#N)o1 (stereo not drawn)	1.6	2.8	13%	1.1	/	/	0.68
NS(=O)(=O)c1ccc(CCNC(=O)C2CCN(S(=O)(=O)c3c(Cl)cccc3Cl)CC2)cc1	-15	2.7	0%	2.9	i	-3.0	0.68
CCOC(=O)C1CCN(C(=O)/C(=C/c2ccccc2)NC(=O)c2ccccc2)CC1	0.8	3.4	/	-1.3	i	4.4	0.67
CC(C)CN(C(=O)CSc1nc2ccccc2o1)c1c(N)n(Cc2ccccc2)c(=O)[nH]c1=O	/	3.8	1%	-0.3	i	-2.3	0.67
COc1c(F)c(F)c(C(=O)Nc2ccc3oc(-c4ccncc4)nc3c2)c(F)c1F	0.6	-14	>100µM*	1.3	/	/	0.79
Cc1ccc2c(=O)cc(C(=O)Nc3ccc(S(=O)(=O)Nc4onc(C)c4C)cc3)oc2c1	-2.0	9.3	-2%	-2.7	i	-2.2	0.7
COc1ccc(CN2C[C@@H](CO)O[C@@H](n3cnc4c(NCc5cc(OC)c(OC)c(OC)c5)ncnc43)C2)cc1	/	/	/	-1.8	i	1.9	/
CCc1c(C)nc(SC/C=C/c2ccccc2)[nH]c1=O	-2.2	4.6	3%	-2.7	/	/	0.71
CC(C)Cc1nnc(NC(=O)CCC(=O)N2CCN(Cc3ccc(F)cc3)CC2)s1	1.2	0.7	/	-3.9	i	-1.1	0.67
